# Env fusion inh – blocks HIV Env-driven cell-cell fusion. HeLa-JRFL Env/CEM21 cell fusion, luciferase. inhibition, % at 12.3 µM. hit rate 1.1% among 360,000;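 active = mean replicate inhibition score of at least 50 and every replicate individually at or above 50; inconclusive = only one of the two criteria met; inactive = mean below 50 and not all replicates reaching 50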;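 also: 0% = plate neutral controls and 100% = maraviroc near 300 nM; one replicate is shown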
# Rce1 inh – yeast Ras-converting enzyme inhibition | yeast membranes, quenched prenylated peptide cleavage fluorescence | hit rate 0.27% among 290,000 | calls only | Q03530;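 active = fall in fluorescence gain of 50% or more versus controls, with final raw signal at or below 3038400; inconclusive = same 50% fall but final raw signal above 3038400; inactive = fall in fluorescence gain under 50%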;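 also: plate controls were neutral control wells for no effect and wells lacking membranes for full effect; tested at 10 µM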
# CSC inhib – blocks cancer stem cells. hit rate 1.1% among 300,000. cancer stem cell-like cells viability, luminescence. inhibition, % at 7.5 µM. AID 2717;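 active = mean at 75% or more and at least half the replicates too; inconclusive = mean and replicates disagree; tested in HMLE shEcad cells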;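 also: 0% = median of negative and 100% = median of positive control wells; the first replicate is given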
# MT1-MMP act inh – blocks activation of human MT1-MMP; AID 651647; P50281; HT1080 RFP-PRO-GFP cells, GFP/RFP ratio fluorescence, overnight; percent of plate control window, DMSO zero; hit rate 0.061% among 360,000; GFP/RFP ratio change, % at 20 µM;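 active = GFP/RFP ratio change of at least 30% with cell ATP level not reduced by more than half and red fluorescence within 50% of control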; also: strong numbers were not always called active
#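 Assay system: HT1080 RFP-PRO-GFP cells | Dosing: 20 µM single dose, 1% DMSO | Incubation: Cells overnight before dosing, compound overnight, 37 °C, 5% CO2 | Evaluation: GFP/RFP fluorescence ratio | Control set: DMSO-only wells and HT1080 RFP-L50D-GFP cell wells as references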
# Yeast UUG start – yeast start codon fidelity modulation; S. cerevisiae UUG-firefly luciferase reporter, luminescence/redox ratio; activity score, % at 18.7 µM; hit rate 0.13% among 350,000; AID 602363;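 active = replicate mean at a twofold rise or more, about +100% in these data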;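 also: firefly luciferase made from a UUG start codon reports start codon fidelity; reporter light over untreated wells divided by growth signal over untreated wells; some hits fall short of that in this replicate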
# PABP polyA inh – PABP-poly(A) binding inhibition; hit rate 1% among 290,000; PABP-poly(A) RNA binding, fluorescence polarization; inhibition, % at 35 µM;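 active = 50% or more with normal probe brightness, or confirmed in later tests; inconclusive = above 50% with abnormal brightness, or retests that disagree; inactive = below 50% or failed in later tests; about a fifth of its hits are not listed in these tables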;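 also: calls also rest on retests at 20 µM and on dose response follow-up; controls were probe without protein and protein plus probe with vehicle; some compounds called inactive have numbers as strong as hits; many hits fall short of the cut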
# Target sequence (P11940 whole entry, looked up): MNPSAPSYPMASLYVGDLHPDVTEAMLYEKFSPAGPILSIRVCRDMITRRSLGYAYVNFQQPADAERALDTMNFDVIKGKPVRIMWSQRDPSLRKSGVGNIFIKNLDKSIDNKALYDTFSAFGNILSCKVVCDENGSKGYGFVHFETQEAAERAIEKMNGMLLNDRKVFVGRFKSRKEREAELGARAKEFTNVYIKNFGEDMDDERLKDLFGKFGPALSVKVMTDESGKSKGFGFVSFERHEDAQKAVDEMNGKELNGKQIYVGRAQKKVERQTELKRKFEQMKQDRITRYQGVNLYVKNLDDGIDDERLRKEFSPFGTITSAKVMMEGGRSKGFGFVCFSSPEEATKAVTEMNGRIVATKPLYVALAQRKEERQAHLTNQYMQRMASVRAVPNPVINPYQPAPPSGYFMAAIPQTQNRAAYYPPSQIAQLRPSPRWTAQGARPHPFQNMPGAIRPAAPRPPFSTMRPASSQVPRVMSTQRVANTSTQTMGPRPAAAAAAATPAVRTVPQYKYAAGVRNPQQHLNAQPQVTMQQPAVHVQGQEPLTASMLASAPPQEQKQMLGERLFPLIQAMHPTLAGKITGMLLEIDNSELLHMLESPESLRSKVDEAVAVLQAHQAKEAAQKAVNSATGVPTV
# eIF4H FP inh – inhibitors of RNA binding by human eIF4H. eIF4H fluorescence polarization binding assay. Q15056. hit rate 0.94% among 290,000. inhibition, % at 35 µM;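 active = 50% or more with normal probe brightness, or confirmed in later tests; inconclusive = above 50% with abnormal brightness, or retests that disagree; inactive = below 50% or failed in later tests; about a fifth of its hits are not listed in these tables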;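 also: calls also rest on retests at 20 µM and on dose response follow-up; 0% = protein and probe with vehicle and 100% = probe without protein; strong numbers were not always called active; many hits fall short of the cut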
# eIF4H FP inh retest – further read-out of eIF4H FP inh, marked with its call; inhibition, %; compound at 20 µM; confirmation average;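 mean of two retest wells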
# PABP polyA inh retest – also measured in PABP polyA inh; calls as there; inhibition, %; compound at 20 µM; confirmation repeats;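 mean of two retest wells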
# MT1-MMP act inh RFP – further read-out of MT1-MMP act inh, marked with its call; RFP signal change, %; measured here: RFP expression control read;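 0 = vehicle wells; hits needed this value within 50% of zero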
# * hit, by the source's call; i = inactive; ? = inconclusive; / = no result given; + = active, no number.
SMILES,Env fusion inh,Rce1 inh,CSC inhib,MT1-MMP act inh,MT1-MMP act inh RFP,Yeast UUG start,PABP polyA inh,eIF4H FP inh,others
Cc1oc2c(c1C(=O)N1CCC(C)CC1)C(=O)c1ccccc1C2=O,2,i,?,/,/,/,54,0,eIF4H FP inh retest=-9;PABP polyA inh retest=0
O=C(Nc1ccccc1)c1c(F)c(F)c(F)c(F)c1F,/,i,-15,-2,-3,-19,-8,-4,
CC(C)CC(NC(=O)C1CCC(C)CC1)C(=O)Nc1ccc2c(c1)OCCO2 (configuration not stated),-1,i,-7,-8,-8,-37,-11,-4,
COc1cc(N2CCCC2)c(OC)cc1/C=C(/C#N)c1cccc(F)c1,/,i,3,-340,-3,-17,?,?,
COc1ccc(-c2nnc(SC(C)C#N)o2)cc1 (configuration not stated),-33,i,-3,-2,2,/,7,4,
CC(C)Cc1cc(C(=O)Nc2cccc(O)c2)no1,-56,i,-1,5,3,/,-10,-3,
Cn1c(SCC(=O)Nc2ccccc2)nnc1-c1ccc(NC(=O)CCc2ccccc2)cc1,5,i,-14,3,-6,-13,-8,13,
Cc1ccccc1N(CC(=O)NCCSCc1ccco1)S(C)(=O)=O,/,i,/,-2,5,/,21,23,
CC(C)(C)c1ccc(C(=O)N2CCN(C(=O)C3CCCCC3)CC2)cc1,13,i,7,4,-6,21,3,6,
O=C(COc1ccc(Cl)cc1)NCc1nnc2c3ccccc3c(-c3ccccc3)nn12,10,i,-12,1,3,/,2,10,
NC(=O)CSc1cn(Cc2ccccc2)c2ccccc12,7,i,10,-2,2,/,5,-4,
O=C(CSc1ccccc1C(=O)NCc1ccccc1)NC12CC3CC(CC(C3)C1)C2,76*,i,-19,-6,-6,/,0,1,
CCCC(=O)OC(C(=O)Nc1cc(C(F)(F)F)ccc1Cl)c1ccccc1 (configuration not stated),12,i,9,-2,0,-9,-6,12,
CC(=O)C1=C(O)C(=O)N(Cc2cccnc2)C1c1ccc(C)cc1 (configuration not stated),-29,i,/,/,/,/,-8,1,
CCOC(=O)c1sc2nc(C3CC3)cc(-c3ccc(OC)cc3)c2c1N,/,+,11,-7,-3,-29,-5,-11,
CCOC(=O)c1ccc(NC(=O)CC2C(=O)N(c3ccc(F)cc3)C(=O)N2CCC(C)C)cc1 (configuration not stated),6,i,14,5,-4,6,-9,-14,
COc1ccc(S(=O)(=O)N2CCC(C)CC2)cc1N(C)S(=O)(=O)c1ccccc1,43,i,-2,-4,-5,-7,3,2,
C=CCn1c(SCc2ccc3c(c2)OCO3)nc2scc(-c3ccco3)c2c1=O,-64,i,10,-8,-1,-13,-1,4,
CCn1c(SCC(N)=O)nnc1-c1ccco1,/,i,-12,-1,-2,/,-1,-5,
COC(=O)c1cccc(N2C(=O)C(Cl)=C(N3CCOCC3)C2=O)c1,0,i,13,1,1,-14,4,-3,
COc1ccc(C(=O)Nc2cccc(-c3ccc(N4CCOCC4)nn3)c2)cc1,-32,i,/,4,0,-12,/,/,
Cc1cc(C(=O)Nn2cnnc2)cs1,-84,i,-18,-2,3,-9,-3,-7,
O=P(OC1CCCCC1)(OC1CCCCC1)C(O)c1ccccc1 (configuration not stated),61*,i,-8,-2,8,1,-5,-3,
O=C(c1ccc(-n2cncn2)c([N+](=O)[O-])c1)N1CCN(S(=O)(=O)c2ccc(Cl)cc2)CC1,9,i,-5,-7,-5,-4,4,-9,
Nc1nc(SCC(=O)c2cc(F)ccc2F)n[nH]1,5,i,12,4,4,/,2,-2,
Clc1cc(Sc2ccc(Br)cc2)nnc1-c1ccccc1,/,i,-6,0,-2,-17,-5,-3,
CN(Nc1cccc(Cl)c1)c1cccc(Cl)c1,-11,/,/,1,8,-19,/,/,
Cc1ccc(NC(=O)/C(C#N)=C/c2cn(CC(=O)NCc3ccco3)c3ccccc23)cc1C,-16,i,37,-7,1,-12,-3,20,
O=C(CSc1nnc2c(Cl)cc(Cl)cn12)N1CCOCC1,/,i,-1,2,0,/,-3,-5,
N/C(=N\OC(=O)C1CCCCC1)c1cccc(Br)c1,/,i,-8,-2,-3,6,1,-2,
COc1ccc(S(=O)(=O)Nc2cc(C)nn2-c2ccccc2)cc1,/,i,-4,2,5,4,14,-10,
S=C(NC1CCCCC1)NN(c1ccccc1)c1ccccc1,11,i,3,-4,-4,-21,4,16,
O=C(O)c1ccc(N=Nc2c(O)[nH]c3cc(Cl)ccc23)cc1,-431,i,-31,-139,-2,/,-5,-6,
CC(NC(=O)CCNC(=O)c1ccc(Br)cc1)c1ccc(-n2ccnc2)cc1 (configuration not stated),/,i,-16,-1,-2,-13,/,/,
CN1C2Cc3c(n(C)c4ccccc34)C1CC=C2CO (configuration not stated),6,/,41,1,2,-10,/,/,
c1ccc(-n2c(SCc3nc(-c4cccs4)no3)nnc2-c2ccco2)cc1,/,i,-2,-7,-9,/,-5,1,
COc1cc(/C=N/Nc2ccccn2)cc(OC)c1O,-65,/,-7,0,3,/,-14,-2,
CCC(=O)Nc1ccc(S(=O)(=O)N2CCc3ccccc32)cc1,-15,i,3,5,-4,-16,0,0,
CCOC(=O)CCNC(=O)N1CCCC(Cc2ccccc2)(C(=O)OCC)C1 (configuration not stated),15,i,-5,7,2,4,10,-4,
Cc1noc(C)c1-c1ccc(C(=O)NCC(C)C)c2occc12,-1,/,/,12,4,7,/,/,
CCOC(=O)C1(C)Oc2ccc(S(=O)(=O)CC)cc2NC1=O (configuration not stated),7,i,-3,0,0,7,1,1,
CNC(=O)CSc1nnc(-c2ccccc2)n1C,-5,i,-3,1,7,9,4,0,
Cc1ccc(NC(=S)NCc2cccn2C)cc1,14,i,-5,-3,-6,/,4,-3,
COc1ccc(Cl)cc1NC(=O)CN(C)C(=O)c1sc2ccccc2c1Cl,25,/,/,-1,-7,-11,/,/,
CCC(C)(C(=O)NC1CCCC1)N(C)C(=O)c1ccccn1 (configuration not stated),6,i,-10,1,3,/,-2,9,

# 6 entries drawn at random from the list so far:
SMILES,Env fusion inh,Rce1 inh,CSC inhib,MT1-MMP act inh,MT1-MMP act inh RFP,Yeast UUG start,PABP polyA inh,eIF4H FP inh,others
O=C(O)c1ccc(N=Nc2c(O)[nH]c3cc(Cl)ccc23)cc1,-431,i,-31,-139,-2,/,-5,-6,
Cc1ccc(NC(=S)NCc2cccn2C)cc1,14,i,-5,-3,-6,/,4,-3,
CNC(=O)CSc1nnc(-c2ccccc2)n1C,-5,i,-3,1,7,9,4,0,
CN1C2Cc3c(n(C)c4ccccc34)C1CC=C2CO (configuration not stated),6,/,41,1,2,-10,/,/,
CC(NC(=O)CCNC(=O)c1ccc(Br)cc1)c1ccc(-n2ccnc2)cc1 (configuration not stated),/,i,-16,-1,-2,-13,/,/,
COc1ccc(S(=O)(=O)Nc2cc(C)nn2-c2ccccc2)cc1,/,i,-4,2,5,4,14,-10,

# Other compounds:
SMILES,Env fusion inh,Rce1 inh,CSC inhib,MT1-MMP act inh,MT1-MMP act inh RFP,Yeast UUG start,PABP polyA inh,eIF4H FP inh,others
COc1ccc(S(=O)(=O)CCC(=O)NCCc2cccc(C)c2)cc1,/,i,-6,4,0,-3,-1,-1,
COc1cc(-n2nnnc2SCC(=O)N2CCN(c3ccc(F)cc3)CC2)c(OC)cc1Cl,/,i,/,-3,-21,/,-2,-2,
COc1cc(Cl)ccc1OCc1cc(C(=O)N(C)CCc2c(C)n[nH]c2C)no1,11,i,7,-1,-3,-1,-3,2,
COc1ccc(N(CC(=O)NC2CC3CCC2C3)S(=O)(=O)c2ccccc2)cc1OC (configuration not stated),-2,i,-6,1,0,-3,11,4,
CC[C@]12c3[nH]c4ccc(Cl)cc4c3CCN1C(=O)[C@@H](CC(=O)NCCCN(C)C)C[C@@H]2C(=O)N1CCN(C(=O)C2CC2)CC1,-2,/,/,-1,3,-1,/,/,
CCn1c(CCNC(=O)c2ccc(OC)cc2)nnc1SCC(=O)Nc1ccccc1F,-4,i,-15,-4,-5,316*,4,1,
COc1cc(CC(=O)NCC2CCCCC2)cc(OC)c1OC,0,i,-10,3,-2,18,3,-9,
O=C(N/C(=C\c1cccnc1)c1nc2ccccc2[nH]1)c1cccc(Br)c1,-17,i,6,8,6,/,0,-8,
CC1CCCCC1NC(=O)NC(=O)COC(=O)c1nccnc1N (configuration not stated),-11,/,-18,0,2,-8,/,/,
COc1ccc(S(=O)(=O)Nc2nc3ccccc3nc2Nc2cccc(C(=O)O)c2)cc1,2,i,1,1,2,-18,6,5,
CNC(=S)N/N=C/c1c(C)cccc1Cl,6,i,-19,4,2,-17,3,1,
Clc1ccc(-c2cc(COc3ccc4ccccc4c3)no2)cc1,/,i,4,3,3,/,-6,-14,
CCCCOCCCNC(=O)Cc1ccccc1OC,/,i,-2,-1,1,11,7,8,
O=C(c1ccc(O)c(Br)c1)c1cc(Br)ccc1O,-3,/,/,0,-15,0,/,/,
CN(CCOc1ccccc1)S(=O)(=O)c1ccccc1C#N,-2,/,-7,5,0,-17,/,/,
O=C(c1ccc(N2CCCS2(=O)=O)cc1)N1CCN(c2ccccc2)CC1,-7,i,-8,0,-3,5,6,5,
CC(NC(=O)c1cnc2ccccc2n1)c1ccccc1 (configuration not stated),-21,i,-11,-4,-3,-11,0,13,
CCCc1cc(=O)oc2cc(OCc3cc(OC)c(OC)c(OC)c3)c(Cl)cc12,-2,i,/,-4,-10,-20,-8,4,
CSCC[C@H](NC(=O)OC(C)(C)C)C(=O)N/N=C/c1cccc2cccnc12,4,i,-4,6,-2,-10,-4,10,
C/C=C/c1ccc(OCC(=O)Nc2cc(Cl)ccc2-n2cncn2)c(OC)c1,/,i,0,2,-4,-16,/,/,
Oc1ccc(Br)cc1CNc1cnc2ccccc2c1,2,i,58,1,-8,0,-5,-10,
Cc1c(Cl)cccc1NC(=O)CCCCCN1C(=O)CCC1=O,/,i,-4,-7,-1,-8,2,-4,
Cc1ccc(CCN2C(=O)CCC2(C)C(=O)NC2CCCC2)cc1 (configuration not stated),-4,/,6,-1,1,-12,-4,-10,
Cc1ccccc1C(=O)NC1CCN(CC(=O)Nc2nccs2)CC1,4,i,7,1,1,-15,19,-2,
N#Cc1c(-c2ccc(Cl)cc2)ccn2nc(C3CCCCC3)nc12,-101,i,/,-10,2,-9,-4,-3,
Cc1cc(CN(C)C(=O)c2ccc3nc(Cc4ccccc4F)oc3c2)n[nH]1,7,i,-5,-3,0,-6,-12,-2,
CCN(CC)c1ccc(NS(=O)(=O)c2ccc3c(c2)oc(=O)n3C)c(C)c1,/,?,-12,-5,-6,-9,5,6,
Fc1ccc(Nc2nc3ccccc3s2)cc1,-48,i,14,-1,-3,4,-6,-14,
CCS(=O)(=O)N1Cc2ccccc2CC1C(=O)Nc1nc2ccccc2s1 (configuration not stated),-196,i,-2,4,-2,-48,-7,13,
CCOc1ccc2nc(NCCNC(=O)Nc3ccccc3)c(C#N)cc2c1,-73,i,-16,-3,-3,-17,46,7,
COc1cc(OC)cc(C(=O)NNC(=O)Cc2ccc(OC)c(S(=O)(=O)N3CCOCC3)c2)c1,-37,i,16,5,6,/,4,-1,
CC(C)(C)c1cc(/C=C2\NC(=O)NC2=O)cc(C(C)(C)C)c1O,3,i,13,6,3,-6,-1,3,
CCOc1cccc2sc(NC(=O)CCS(=O)(=O)c3ccccc3)nc12,-17,i,-5,-4,-6,-7,-1,-6,
Oc1ccc(Br)cc1/C=N/Nc1ccccn1,-35,i,101*,-2,-12,-45,6,4,

# Screening data (PubChem)
